Screening data deposited in PubChem BioAssay by several laboratories.
GALR2 ag = agonists of human galanin receptor 2 (GALR2); O43603; GALR2-expressing cells, agonist activation read-out; activation, %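 (tested at 5 µM)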; 140,000 tested, 0.48% active;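 active = above mean plus 3 SD of all compounds, about 5% in these data, not always enough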;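 also: 0% = vehicle buffer wells and 100% = reference agonist at full effect; tested in CHO reporter cells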
Target sequence (O43603 whole entry, looked up): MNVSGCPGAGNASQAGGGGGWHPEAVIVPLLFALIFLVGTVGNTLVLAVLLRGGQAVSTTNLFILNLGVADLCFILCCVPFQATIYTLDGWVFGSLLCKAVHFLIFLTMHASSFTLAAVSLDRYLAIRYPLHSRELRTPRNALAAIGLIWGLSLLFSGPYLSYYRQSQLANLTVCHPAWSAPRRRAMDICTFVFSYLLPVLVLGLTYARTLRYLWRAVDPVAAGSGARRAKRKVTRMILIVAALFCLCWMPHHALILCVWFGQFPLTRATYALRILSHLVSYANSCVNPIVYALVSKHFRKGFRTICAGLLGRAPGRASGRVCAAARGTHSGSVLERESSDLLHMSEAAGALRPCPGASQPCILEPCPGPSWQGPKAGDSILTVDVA
PKD1 inh = inhibitors of human PKD1 kinase; Q15139; inhibition, %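 (about 10 µM by stock and volumes)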; AID 797; 200,000 tested, 0.056% active; PKD1 kinase fluorescence polarization assay;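 active = inhibition of 50% or more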;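 also: controls were vehicle for no effect and a reference inhibitor for full effect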
HSV replic up = HSV replication enhancement; HSV replication augmentation in cells, fold increase; maximum fold increase; 220,000 tested, 0.005% active; AID 1956;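 active = peak rise of 1.5-fold or more in the series; tested in PC3 cells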;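 also: first round at 10 µM; read as green reporter fluorescence; hits show the peak of a series up to 25 µM; 1 = signal of infected wells without compound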
INS promoter inh = TRM-6 insulin promoter activity inhibition; TRM-6 cells (human fetal islet line), insulin promoter-eGFP reporter, imaging; reporter expression induced with tamoxifen; inhibition, % at 2 µM; 130,000 tested, 0.9% active; AID 1273;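 active = inhibition above the mean plus 3 SD, with well images judged a real hit on visual review, cut at about 60% in these data, passing the limit was not always enough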
RGS16-Gao = RGS16-Galphao interaction regulator (human) | O15492+P09471 | bead-based flow cytometry RGS16-Galphao binding, fluorescence; actives lie on both sides | binding response (% of control), % at 10 µM | 220,000 tested, 0.38% active;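 active = below 25% or above 175%, edge rows of some plates excepted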;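 also: Galphao activated by GDP with aluminum fluoride before binding; 100% = wells without compound and 0% = beads without RGS; some results beyond the cut were filed as inactive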
Target sequence (O15492 whole entry, looked up): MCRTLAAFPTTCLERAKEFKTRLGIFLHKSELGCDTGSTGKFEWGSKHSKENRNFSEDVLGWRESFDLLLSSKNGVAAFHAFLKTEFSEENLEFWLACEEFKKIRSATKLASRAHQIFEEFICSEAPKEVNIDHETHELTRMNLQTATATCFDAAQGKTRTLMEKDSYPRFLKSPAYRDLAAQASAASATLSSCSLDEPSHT
Target sequence (P09471 whole entry, looked up): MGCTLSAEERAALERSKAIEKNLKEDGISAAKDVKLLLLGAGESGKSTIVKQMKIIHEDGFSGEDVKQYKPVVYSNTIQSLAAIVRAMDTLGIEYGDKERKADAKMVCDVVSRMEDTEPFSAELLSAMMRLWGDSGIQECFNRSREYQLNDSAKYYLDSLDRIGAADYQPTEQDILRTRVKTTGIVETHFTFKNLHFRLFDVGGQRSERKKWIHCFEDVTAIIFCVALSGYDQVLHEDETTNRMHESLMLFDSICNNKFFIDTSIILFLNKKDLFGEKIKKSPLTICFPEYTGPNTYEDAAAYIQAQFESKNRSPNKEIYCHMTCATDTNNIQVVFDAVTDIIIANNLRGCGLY
INS promoter inh cell count = recorded beside INS promoter inh, whose call it bears; normalized cell count, %; measured here: cell count, toxicity; reference of the scale not given here;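 cells exposed to compound for 48 h; stained nuclei by imaging scaled within each plate; lower means fewer cells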
HSV replic up primary fold = second read-out of HSV replic up, no call of its own (marks repeat the call); fold increase; compound at 10 µM; measured here: primary screen fold increase 10 uM; tested in PC3 cells;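 GFP signal in the first replicate; 1 = infected wells without compound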
Numbers without * were called inactive; i = inactive; . = not tested or not shown.

mol	GALR2 ag	PKD1 inh	HSV replic up	HSV replic up primary fold	INS promoter inh	INS promoter inh cell count	RGS16-Gao
COc1ccc(-c2nc3ccccc3c(=O)n2CCN2CCOCC2)cc1	0.2	-6	i	1.1	55	78	98
Cc1cc(C(F)(F)F)nn1CC(=O)NCC1CCCO1 (configuration not stated)	-1.2	-13	i	1.1	30	109	100
CCOC(=O)C1=NOC(Cn2cc(C(C)=O)c(=O)[nH]c2=O)C1 (configuration not stated)	.	5	i	0.87	.	.	99
CCOc1ccc(-c2cnc3n2CCC3)cc1	-1.8	-14	i	0.9	39	100	101
O=C(O)c1cc(S(=O)(=O)Nc2ccccc2C(=O)O)ccc1O	-2.2	-10	i	1	57	91	108
O=C(Nc1ccn(Cc2ccccc2F)n1)c1ccc(COc2cccc(Br)c2)cc1	0.5	2	i	1.1	0	121	98
CCN(CC)C(=O)CSc1nnc(-c2cccnc2)n1Cc1ccccc1	-2.0	-6	i	0.99	-30	79	50
CCC(=O)N1CC2(CC(c3cccc(NC(=O)COc4ccc(Cl)cc4)c3)=NO2)C[C@@H]1C(N)=O (some centres not stated)	.	.	i	0.97	.	.	101
Clc1ccc(CSc2ccc(-c3ccco3)nn2)cc1	.	1	i	1	-33	117	105
O=C1CCC(CCC(=O)N2CCCC(C(=O)c3ccc4c5c(cccc35)CC4)C2)=NN1 (configuration not stated)	.	2	i	1	.	.	96
Cc1c(C(=O)NCc2ccccc2)oc2c1C(=O)CCC2	-1.1	5	i	0.89	53	134	100
CCn1c(=O)cc(SCC(=O)Nc2ccc(Cl)cc2)c2ccccc21	0.4	0	i	1.1	-8	132	107
CC1(C)OC(=O)C(=CNC(Cc2c[nH]c3ccccc23)C(=O)O)C(=O)O1 (configuration not stated)	0.5	0	i	1.2	.	.	105
O=C(NCc1cccs1)Nc1cccc(Cl)c1	-2.3	1	i	1	-338	80	.
CN(C)CC(C)(C)CNC(=S)NCc1ccc2c(c1)OCO2	-0.6	-1	i	0.94	-13	129	96

(cont.)
mol	GALR2 ag	PKD1 inh	HSV replic up	HSV replic up primary fold	INS promoter inh	INS promoter inh cell count	RGS16-Gao
CCn1c(COc2ccc3c(c2)OCO3)nnc1SCC(=O)c1ccc(Cl)cc1	-1.0	9	i	1.1	29	136	63
O=C(c1cccc(S(=O)(=O)N2CCOCC2)c1)N1CCN(S(=O)(=O)c2cccs2)CC1	.	7	i	0.96	.	.	103
COc1ccc(C(=O)Nn2c(SCc3cccc([N+](=O)[O-])c3)nc3ccccc3c2=O)cc1	-1.4	3	i	0.96	61	43	86
COCCN=C1Sc2nc3cc(C)c(C)cc3cc2CN1Cc1cccs1	.	.	i	0.98	.	.	103
CCOC(=O)CN(c1ccccc1)S(=O)(=O)c1ccc(F)cc1	.	-6	.	.	-8	83	107
COc1ccc(Cl)cc1N(CC(=O)N1CCC(C)CC1)S(C)(=O)=O	-0.8	-16	i	0.95	.	.	108
CCN(CC)CCn1c(NCc2ccco2)nc2ccccc21	-2.2	-8	i	0.92	3	145	103
O=C(Cn1cnc2sc(-c3ccccc3)cc2c1=O)NCc1ccccc1	-1.9	0	i	0.95	63	157	98
COc1ccc(CN2CC(C(=O)NCc3ccc4c(c3)OCO4)CC2=O)cc1 (configuration not stated)	-0.7	-6	i	1.2	-37	100	94
OCCOCCN1CCN(C(=S)Nc2ccccc2)CC1	.	-3	i	0.93	22	106	106
Cn1c(=O)c(=O)n(C)c2cc(S(=O)(=O)NCCOc3ccccc3)ccc21	.	-6	i	1.1	.	.	102
COc1ccc(C(=O)N2CCN(C(=O)c3cc(OC)c(OC)c(OC)c3)CC2)cc1	-0.8	-8	.	.	19	86	101
COc1ccc(C(=O)Nn2cnc3scc(-c4cccs4)c3c2=O)c(O)c1	-1.1	-7	i	0.94	0	44	102
O=C(Nc1ccccc1)c1ccc(CN2CCC(Cc3ccccc3)CC2)cc1	-1.8	-8	i	0.73	27	82	.
O=C(CN(c1ccc(F)cc1)S(=O)(=O)c1ccc2c(c1)OCCO2)Nc1ccccc1	-2.3	-4	i	1	42	98	113

Continued:
mol	GALR2 ag	PKD1 inh	HSV replic up	HSV replic up primary fold	INS promoter inh	INS promoter inh cell count	RGS16-Gao
CCCCc1nnc2c(N(C)S(=O)(=O)c3ccc(C)cc3)nc3ccccc3n12	.	.	i	1	.	.	102
COc1ccc([C@@H]2OC2(C(N)=O)C(N)=O)cc1	.	.	i	0.89	.	.	104
Nc1cc(=O)[nH]c(SCC(=O)Nc2cccc([N+](=O)[O-])c2)n1	.	.	i	0.98	.	.	104
CCOc1cc2[nH]c(=S)n(CCCOC)c(=O)c2cc1OCC	0.8	-2	i	1.1	.	.	101
FC(F)Oc1ccc(NC(=S)NNc2ccnc3cc(Cl)ccc23)cc1	.	0	i	0.95	.	.	97
O=C1CC(c2ccccc2)CN1C(=O)c1cccc([N+](=O)[O-])c1 (configuration not stated)	-1.2	-14	i	0.97	-43	79	105
Cc1sc2ncn(CC(=O)Nc3ccccc3F)c(=O)c2c1-c1ccccc1	.	5	i	0.77	33	151	98
Cc1ccc(NC(=S)N(CCN(C)C)Cc2cc3cc(C)ccc3[nH]c2=O)cc1	.	10	i	1	-25	120	114
O=C(COC(=O)c1cc2ccccc2cc1O)NC(=O)NCc1ccco1	.	-5	i	0.96	.	.	101
COc1ccc(C(CCN2CCN(c3ccccc3)CC2)c2c(OC)cc(OC)c3c(-c4ccccc4)cc(=O)oc23)cc1 (configuration not stated)	.	.	i	0.84	.	.	91
CCOc1cc(NC(=S)NCCCN2CCOCC2)c(OCC)cc1NC(=O)c1cccs1	.	2	i	1	-21	86	132
NNC(=O)c1cc2c(ccc3ccccc32)o1	.	-2	i	0.71	-31	94	96
O=C(CN1CCN(Cc2ccc(F)cc2)C1=O)NCc1cccs1	.	5	i	0.58	.	.	104
COc1cc(C2C3=C(CCCC3=O)Nc3[nH]n(-c4ccccc4)c(=O)c32)ccc1OC(C)=O (configuration not stated)	.	8	i	0.95	-50	106	100
O=C1CC(c2cccc(Cl)c2)Cc2nc(N3CCOCC3)ncc21 (configuration not stated)	-1.1	2	i	0.91	-25	153	101

Further results.
mol	GALR2 ag	PKD1 inh	HSV replic up	HSV replic up primary fold	INS promoter inh	INS promoter inh cell count	RGS16-Gao
Cc1ccc(Cn2nc(C)c(/C=N/NC(=O)c3cccnc3)c2C)cc1	.	-1	i	1.1	18	114	101
CC(C)OC(=O)CSc1nc2c(cc1C#N)CCCCC2	.	-3	i	1.1	20	88	102
CC(C)c1ccc2c(c1)C1Cc3ccccc3C1N2 (configuration not stated)	-1.5	12	i	1.1	-137	113	100
O=C(N/N=C/c1ccc2cccc(OCc3ccccc3)c2n1)c1ccc(Br)cc1	-1.7	3	i	0.79	.	.	101
O=C(Oc1cccc2cccnc12)c1ccc2c(c1)OCCO2	-3.8	1	i	0.85	-26	125	104
COc1ccc(N2C(=O)CCC2(C#N)c2ccc(Br)cc2)cc1 (configuration not stated)	-2.4	-1	i	0.98	44	83	118
Cc1ccc2[nH]c3c(Cl)ncnc3c2c1	.	.	i	0.86	.	.	100
O=C(Cc1ccccc1)NCCSCc1ccccc1	-0.4	-2	i	1.1	-14	93	106
O=C(Nn1cc(C(=O)Nc2ccccc2F)c2ccccc2c1=O)c1cnccn1	.	-1	i	1	.	.	103
O=C(CSc1nnc(-c2ccncc2)n1Cc1ccco1)Nc1cccc(O)c1	.	6	i	1	.	.	104
COc1ccc(/C=N\NC(=O)c2nn(C)cc2Cl)cc1CN1CCOCC1	0.4	7	i	0.97	-13	87	71
O=C(CSc1c2c(nc3cc(Cl)ccc13)CCCC2)NCc1ccco1	-3.4	-4	i	1	64	102	99
Cc1cc(C)c2nc(N3CCCC3)c(C#N)cc2c1	0.4	3	i	0.74	-9	98	101
COC(=O)c1cc(OC)c(OC)cc1NC(=O)Nc1ccccc1OC	-3.3	-8	i	0.95	.	.	98
COc1ccc(C(CCNCc2ccccc2F)c2ccc(F)cc2)cc1 (configuration not stated)	0.4	8	i	0.61	-34	104	101

Later entries.
mol	GALR2 ag	PKD1 inh	HSV replic up	HSV replic up primary fold	INS promoter inh	INS promoter inh cell count	RGS16-Gao
CS(=O)(=O)N1CCN(c2ccc(NC(=O)c3ccc(Br)o3)cc2)CC1	-0.1	91*	i	1	46	76	96
COc1ccccc1OCCN1C(=O)S/C(=C\c2ccco2)C1=O	-1.9	12	i	0.99	.	.	101
Nn1cnn(Cc2ccccc2)c1=S	-0.5	4	i	0.89	26	74	99
COc1ccccc1/C=C/C=N/n1c(-c2ccncc2)n[nH]c1=S	-0.4	8	.	.	8	111	97
Cc1ccc(SCC(=O)Nc2ccc3c(c2)OCCO3)cc1	-1.9	-5	i	1.1	.	.	90
CN(C)S(=O)(=O)c1cccc(NC(=O)CNCC2CCCCC2)c1	.	1	i	0.93	44	88	101
Cc1cc(=O)[nH]c2ccc(Cl)cc12	-1.2	-6	i	1.1	4	119	102
COc1ccc(O)c(C(=O)c2cnc3c(c2)c(=O)[nH]c(=O)n3C)c1	-1.8	-7	i	1.2	7	72	95
CCn1nc(NC(=O)c2ccco2)c2cc3ccc(C)cc3nc21	1.2	2	i	0.94	.	.	92
C/C=N/NC(=O)CCNC(=O)c1ccccc1	-0.4	-3	i	1	.	.	111
C/C=C/C(=O)OCC(=O)Nc1ccc(SC(F)F)cc1	.	1	i	0.97	.	.	101
COc1ccc(NS(=O)(=O)c2c(C)n(C)c(=O)n(C)c2=O)cc1OC	-1.8	-10	.	.	.	.	102
CCNc1nc(SCc2ccccc2)nc(N2CCOCC2)n1	-1.0	3	i	1	18	79	100
O=C(NCCN1CCN(c2ccccc2)CC1)c1ccc2c(c1)[nH]c(=S)n1c3ccccc3nc21	.	-2	i	0.73	-86	60	107
Cc1cnnc2c1-c1no[n+]([O-])c1CC2	-2.8	7	i	1.1	-85	130	108

Other entries follow.
mol	GALR2 ag	PKD1 inh	HSV replic up	HSV replic up primary fold	INS promoter inh	INS promoter inh cell count	RGS16-Gao
O=C1NC2(CCCCC2)C(=O)N1/N=C/c1ccc(O)cc1O	-2.5	-3	i	1	-36	148	103
O=C(/C=C/c1ccc(S(=O)(=O)N2CCOCC2)cc1)NCCCn1ccnc1	.	-5	i	1	.	.	98
Cc1cc(Nc2cc(C(=O)O)ccc2C)n2ncnc2n1	-1.0	-8	i	1.1	.	.	103
CN(C)CCN1C(=O)C(=O)/C(=C(/O)c2ccc(OCc3ccccc3)cc2)C1c1ccncc1 (configuration not stated)	0.1	-4	i	0.98	-27	113	108
COc1ccc(C(=O)NC(C)c2nc3ccccc3n2C)cc1OC (configuration not stated)	-0.6	-4	i	1.1	.	.	104
c1ccc(-c2nnc(SCC3CCCCO3)nc2-c2ccccc2)cc1 (configuration not stated)	.	-2	i	0.93	-33	92	104
CCC(C)NC(=O)C1CCCN(C(=O)NC2CCCCC2)C1 (configuration not stated)	-1.5	4	i	0.82	-14	201	102
Cc1ccc(O)c(C(=O)c2cnc3c(c2)COc2ccccc2-3)c1	-0.8	-13	i	1	-10	121	101
COc1ccc(NC(=S)N(Cc2ccc(Cl)cc2)Cc2ccc(C(=O)O)cc2)cc1Cl	.	1	i	1	.	.	99
O=C(COc1ccc2ccccc2c1)Nc1cccc(C(=O)Nc2ccccc2C(=O)O)c1	1.4	-5	i	1	0	151	100
Cc1cc(C(=O)N/N=C/c2cccc(OC(=O)c3ccco3)c2)n[nH]1	-2.5	-13	i	0.84	.	.	100
Cc1ccc(S(=O)(=O)N2CC3CCCN3c3ccc(C(F)(F)F)cc32)cc1 (configuration not stated)	-0.9	-13	i	0.89	-29	94	102
CCOC(=O)c1c(C)[nH]c(N=Nc2cccc(C)c2)c1C	-4.1	-1	i	0.91	40	44	100
COc1ccc(-n2c(Cc3cccn3C)nnc2SCC(=O)Nc2ccc(C)cc2)cc1	-1.7	-1	i	1.2	.	.	105
N#Cc1ccc(NC(=O)c2sc3cc(C(F)(F)F)cnc3c2-c2cccs2)cc1	-1.9	7	i	0.94	29	126	95
